# Rango release inh = qHTS Assay for Inhibitors of RanGTP induced Rango (Ran-regulated importin-beta cargo) - Importin beta complex dissociation; AID 540253, 2011; Biochemical FRET Rango-importin beta, RanGTP-induced dissociation; hit rate 0.071% among 340,000; Potency, µM (series often up to 46.1 µM), for the others: at the highest dose activity change, negative = inhibition; active means falling FRET ratio curve, often poorly fitted, with flat reads before Ran was added; inconclusive means other falling curves, or compound fluorescence or quenching; inactive means flat or rising ratio curve;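 further: potency means the concentration at half of the fitted maximal effect; % of control where 0% means no effect; nearly all actives have a fitted effect of over 45% in size; -100% = wells without RanGTP and RCC1; the record marks most hits as doubtful in a second field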
#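 Rango (0.1 uM)–importin beta (0.25 uM) complex; RanGTP-RCC1 trigger; 45 min RT; CFP/YFP FRET read.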
# GLA inh pH 4.5 = qHTS Assay for Inhibitors of Human alpha-Galactosidase at pH 4.5; Alpha-galactosidase A (Homo sapiens), P06280; purified enzyme, 4-MU-alpha-Gal fluorescence, pH 4.5; activity change, negative = inhibition, % at 105 µM; 230,000 tested, under 10 active; inconclusive = small, poorly fitted or top-dose-only inhibition, or a rising curve; inactive = flat fitted curve, though single readings scatter; no compound was filed as active;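 further: 0% = full activity with enzyme and -100% = basal without enzyme; dose as in the result columns while the protocol names 77 µM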
# Target sequence (P06280 whole entry, looked up): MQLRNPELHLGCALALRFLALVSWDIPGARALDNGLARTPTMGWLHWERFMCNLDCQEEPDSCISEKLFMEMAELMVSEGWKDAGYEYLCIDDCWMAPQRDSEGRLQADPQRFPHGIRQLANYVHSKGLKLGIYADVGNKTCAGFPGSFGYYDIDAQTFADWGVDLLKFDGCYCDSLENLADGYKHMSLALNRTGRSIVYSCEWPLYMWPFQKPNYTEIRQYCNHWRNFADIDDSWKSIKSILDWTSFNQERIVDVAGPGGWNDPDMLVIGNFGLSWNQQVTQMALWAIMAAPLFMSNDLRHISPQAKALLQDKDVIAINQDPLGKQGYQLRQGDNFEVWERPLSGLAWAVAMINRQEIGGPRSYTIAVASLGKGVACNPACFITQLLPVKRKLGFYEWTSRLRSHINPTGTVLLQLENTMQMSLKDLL
# miR-21 FLuc = qHTS Assay for Modulators of miRNAs and/orActivators of miR-21; 340,000 tested, under 10 active; Potency, µM (top dose mostly 38.3 µM), for the others: at the top dose reporter change, positive = more light; AID 2288, 2010; HeLa miR-21 FLuc reporter, luciferase, 48 h; active = well fitted rising curve with a large enough effect; inconclusive = small, poorly fitted or top-dose-only effect; inactive = no such curve, though single readings can be large or run the other way;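 further: % of control where 0% means no effect; miR-21 action dims this reporter so a rising signal means less miR-21 action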
#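 HeLa cells stably expressing CMV-driven firefly luciferase with a downstream miR-21 binding sequence, endogenously expressing miR-21, were treated with titrations (up to about 40uM final) for 48 hours at 37 degree Celsius. Luciferase luminescence was read after lysis.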
# Rango complex inh = qHTS Assay for Inhibitors of Rango (Ran-regulated importin-beta cargo) - Importin beta complex formation; Rango CFP/YFP FRET sensor + importin beta, 45 min; AID 540263, 2011; Importin subunit beta-1 (Homo sapiens), Q14974; hit rate 0.031% among 340,000; Potency, µM (doses to about 92.2 µM), inactives show top-dose inhibition of complex formation; active = rising FRET ratio curve, often small or poorly fitted; inconclusive = mostly compound fluorescence or quenching in the first reads; inactive = flat curves in all reads;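 further: potency means the concentration at half of the fitted maximal effect; 0% = DMSO wells and 100% = buffer wells lacking importin beta; nearly all actives have a fitted effect of over 15% in size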
#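 FRET biosensor (snurportin 1 IBB flanked by EYFP and cerulean), 50 nM, with compound 5 min, then 0.125 microM importin beta in PBS, 1 mM DTT, 0.02% Tween-20, 0.1% BSA. CFP/YFP ratio read after 45 min at room temperature; pre-read flags interference.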
# * hit, by the source's call; ? = inconclusive; nt = no result given; [ ] = another dose, or the depositor's remark.
Rango release inh	GLA inh pH 4.5	miR-21 FLuc	Rango complex inh	compound
-1%	-5	-9%	-2.3%	CC(C)C(O)P(=O)(OCc1ccccc1)c1ccc(N(C)C)cc1 (centres undefined)
-12%	-5	1%	-2.7%	COc1ccc(CCn2nnnc2C(c2ccc(Cl)cc2)N2CCN(C)CC2)cc1OC (centres undefined)
8%	-5	-6%	0.2%	Cc1ccc(CC(=O)NCCS(=O)c2ccc(Cl)cc2)cc1 (centres undefined)
-3%	-4	-7%	-0.1%	CCc1[nH]c(C)c(C(C)=O)c1C
-4%	nt	nt	-0.4%	O=C(Nc1cccc(C(F)(F)F)c1)C1CC(=O)N(CCc2ccccc2)C1 (centres undefined)
-3%	nt	-21%	7.2%	Cc1nc(-c2cccc(NC(=O)c3ccc(Br)o3)c2)cs1
5%	nt	-42%	0.5%	CC(=O)NCCc1nc2cc(NC(=O)c3ccc([N+](=O)[O-])cc3)ccc2n1C
-3%	3	-3%	4.3%	O=C(O)CN1C(c2ccccc2)=Nc2ccc(Br)cc2C1c1ccccc1 (centres undefined)
3%	-4	-7%	-0.1%	Cc1cccc(OCC(=O)N2CCN(C(=O)Cc3ccccc3)CC2)c1
0%	-1	-1%	?	OCc1nnn(-c2ccccc2)c1CO
12%	nt	-2%	0.3%	CCC(CC)Nc1ccc(C(CC(N)=O)NC(=O)Cc2cccc3ccccc23)cc1[N+](=O)[O-] (centres undefined)
-8%	nt	20%	5.7%	Cc1ccc(NC(=S)NCc2ccc(Cl)cc2)c(C)c1
3%	nt	-3%	-4.8%	O=C(CN1C(=O)COc2ccccc21)NCCCN1CCCC1
-7%	nt	nt	-0.4%	O=C1Nc2ccc(C(=O)O)c(O)c2C1=O
-6%	nt	nt	0.0%	CCCCn1c(N)c(N(CCOC)C(=O)c2ccc(S(=O)(=O)N3CCCCCC3)cc2)c(=O)[nH]c1=O
15%	nt	-54%	2.3%	Cc1c(NC(=S)NC(=O)c2cc3ccccc3o2)cccc1C(=O)O
0%	-1[21.1 µM]	-3%	0.2%	COc1cccc(CN(C(=O)/C=C/c2ccc(Cl)cc2)C2CCS(=O)(=O)C2)c1 (centres undefined)
-4%	-12	-6%	-1.9%	O=C(c1ccc(F)cc1)N1CCC(N2CCCCCC2)CC1
?	5	-34%	-3.6%	O=c1oc2ccccc2cc1-c1cn2cccnc2n1
-5%	-14	0%	2.2%	CC1CCCCN1C(=O)C12CCC(C)(C(=O)C1)C2(C)C (centres undefined)
10%	3	4%	0.0%	CN(C(=O)c1coc(=O)c2ccccc12)c1ccc(Br)cc1
14%	0	-10%	-0.9%	CC(=O)c1c(N)c(C#N)c(C)n1-c1ccc(Br)cc1
-5%	3	-7%	-3.7%	COC(=O)c1sccc1OC(C)C(C)=O (centres undefined)
-10%	2	2%	0.0%	O=C(N/N=C/c1ccc(Br)s1)c1ccc([N+](=O)[O-])cc1
0%	nt	nt	0.2%	O=C(COC(=O)c1cccc(F)c1)NC(=O)NC1CCCC1
?	-2	-6%	?	O=C(N/N=C/c1ccc(N2CCOCC2)cc1)c1ccccc1NS(=O)(=O)c1cccs1
12%	4	13%	1.2%	NC(=O)Cn1nc(C(F)(F)F)c2c1CCCC2
-13%	-15	-4%	6.7%	O=C(CSc1nc2ncc(Br)cc2[nH]1)c1ccc([N+](=O)[O-])cc1
2%	-14	-7%	5.3%	CCOC(=O)N1CCN(S(=O)(=O)c2cccc3nonc23)CC1
-5%	?	-35%	-0.8%	CC(=O)Nc1ccc(-c2cn3cccnc3n2)cc1
-8%	-2	-10%	-2.6%	CCN(CC)CCCNC(=O)c1cc(-c2ccc(Cl)cc2)on1
-8%	-1	0%	-4.0%	Cn1cccc1CNC1CCCCC1
-13%	6	-20%	0.5%	CC1CCN(C(=O)CNC(=O)Cc2ccccc2)CC1
-6%	nt	-1%	-0.2%	Cc1noc(NS(=O)(=O)c2ccc(NC(=O)Cc3ccc([N+](=O)[O-])cc3)cc2)c1C
3%	6	-1%	1.3%	CC1C(C)C(O)(c2ccccc2)CCN1C (centres undefined)
-10%	-1	-7%	0.3%	CC(C)(C)c1ccccc1OCCCCN1CCCC1
4%	9	-3%	0.0%	Cc1ccccc1NC(=O)c1c(C)cc(=O)oc1C
4%	7	-53%	6.1%	CC1(C(=O)Nc2ccc3ccccc3c2)CC1(Br)Br (centres undefined)
16%	nt	9%	-1.0%	Cc1ccc(S(=O)(=O)N2CCN(CCc3ccccc3)CC2)c(C)c1
4%	nt	nt	3.2%	CC(NC(=O)CN(Cc1ccccc1)S(=O)(=O)c1ccccc1)c1cccnc1 (centres undefined)
11%	nt	nt	-1.0%	CCN(C(=O)COC(=O)Cn1c(C)csc1=O)c1c(N)n(Cc2ccccc2)c(=O)[nH]c1=O
0%	5	17%	0.4%	O=C(N/N=C/c1cccnc1)c1ccccc1OCc1ccc(Br)cc1
0%	nt	-14%	0.2%	COc1ccccc1NCC(=O)c1ccc(C)c(C)c1
-9%	-4	0%	-0.4%	COc1ccccc1NC(=O)CSc1nc(N)cc(N)n1
-14%	3	-8%	-0.5%	O=C(Nc1cccc2c1CCCC2)c1ccc(Br)o1
13%	2	23%	0.1%	CCOC(=O)CSC1=C(C#N)C(c2sccc2C)CC(=O)N1 (centres undefined)
3%	9	-13%	?	CC(C)(C)NC(=O)NC(=O)COC(=O)C1(C)CC1(Cl)Cl (centres undefined)
0%	nt	-5%	2.1%	CC(C(=O)Nc1ccccn1)(c1ccccc1)c1ccccc1
2%	3	0%	4.2%	Cc1nc2ncnn2c(C)c1CCC(=O)NC(C)c1ccc2c(c1)OCCO2 (centres undefined)
23%	3	6%	9.4%	Cc1ccc(NNC(=O)c2cccs2)cc1Cl
2%	-14	18%	-3.5%	O=C(N/N=C\c1cn(-c2ccccc2)nc1-c1ccccc1)c1ccc(Br)o1
-1%	nt	nt	0.3%	CCC1(C2=CCCCC2)C(=O)NC(=S)N=C1N (centres undefined)
nt	2	-16%	nt	COC(=O)Cn1c(=NC(=O)c2ccc([N+](=O)[O-])s2)sc2cc(Br)ccc21
-7%	-1	0%	-2.4%	Cc1cccn2c(CN(C)CCC3CCCCO3)c(C(=O)N3CCCCC3)nc12 (centres undefined)
14%	0	?	-4.3%	NC(N)=NN=C1CCCCCCCCCCC1
8%	-12	-5%	0.9%	CC(C)(C)C1CCc2c(sc(NC(=O)C3CCCO3)c2C(N)=O)C1 (centres undefined)
-6%	nt	nt	-3.3%	Cc1ccc(C)c(NC(=O)CN(C)C(=O)Cc2coc3cc(C)c(C)cc23)c1
-7%	nt	-28%	-1.3%	Cc1cccc(C(=O)Nc2ccc(C(=O)N3CCCCC3C)cc2)c1 (centres undefined)
8%	15	7%	4.7%	COc1ccc2[nH]c(=O)c(CN(CC3CCCO3)S(=O)(=O)c3ccccc3)cc2c1 (centres undefined)
-4%	-7	1%	-1.6%	O=C(NCCNc1ccc([N+](=O)[O-])cc1)c1ccco1

# 3 structures already listed, sorted by count of non-hydrogen atoms, falling.
Rango release inh	GLA inh pH 4.5	miR-21 FLuc	Rango complex inh	compound
nt	2	-16%	nt	COC(=O)Cn1c(=NC(=O)c2ccc([N+](=O)[O-])s2)sc2cc(Br)ccc21
-7%	nt	-28%	-1.3%	Cc1cccc(C(=O)Nc2ccc(C(=O)N3CCCCC3C)cc2)c1 (centres undefined)
-14%	3	-8%	-0.5%	O=C(Nc1cccc2c1CCCC2)c1ccc(Br)o1

# Quoted at random: 4 compounds from above, in no set order.
Rango release inh	GLA inh pH 4.5	miR-21 FLuc	Rango complex inh	compound
16%	nt	9%	-1.0%	Cc1ccc(S(=O)(=O)N2CCN(CCc3ccccc3)CC2)c(C)c1
-6%	nt	nt	-3.3%	Cc1ccc(C)c(NC(=O)CN(C)C(=O)Cc2coc3cc(C)c(C)cc23)c1
0%	5	17%	0.4%	O=C(N/N=C/c1cccnc1)c1ccccc1OCc1ccc(Br)cc1
-1%	nt	nt	0.3%	CCC1(C2=CCCCC2)C(=O)NC(=S)N=C1N (centres undefined)

# (listing goes on)
Rango release inh	GLA inh pH 4.5	miR-21 FLuc	Rango complex inh	compound
14%	-7	-30%	0.0%	Cc1ccc(C(=O)C(NC(=O)c2ccco2)N2CCOCC2)cc1 (centres undefined)
-2%	0	-8%	-2.5%	COc1ccc(CCNC(=O)CSc2nncn2N)cc1OC
1%	-10	-1%	6.2%	O=C(NC(CO)c1ccccc1)c1ccco1 (centres undefined)
0%	nt	nt	4.8%	Cc1ccc(C)c(NC(=O)CN(C)C(=O)c2ccc(-c3cccc(C(F)(F)F)c3)o2)c1
19%	nt	1%	6.2%	O=[N+]([O-])c1ccc(S(=O)(=O)N(CC(O)CN2CCCCC2)c2ccccc2)cc1 (centres undefined)
3%	-19	9%	0.0%	CCN(CC)CC#CCC(C)(c1ccccc1)c1ccccc1
-10%	0	-2%	-5.1%	CCCCN(Cc1ccccc1)S(=O)(=O)c1ccc2c(c1)n(C)c(=O)c(=O)n2C
1%	6	3%	5.1%	COCCn1nnnc1CN1CCC(NC(=O)Nc2cccc(OC)c2)CC1
0%	nt	-9%	-0.6%	COCCc1ncc(CN2CCC(C(=O)Nc3ccc(-n4cccn4)cc3)CC2)cn1
0%	4	-1%	0.5%	CC1(C)Cc2ccccc2C(NNC(=O)c2cccnc2)=N1
-3%	nt	nt	0.2%	CCN(c1ccccc1)S(=O)(=O)c1cc(C(=O)OCC(=O)c2c(N)n(C)c(=O)n(C)c2=O)ccc1C
3%	nt	-2%	-1.0%	COc1cccc(CN2CCNC(=O)C2CC(=O)NC2CCCCC2)c1OC (centres undefined)
8%	5	-22%	1.9%	Cc1ccc(NC(=O)C(OC(=O)c2ccc(C=O)cc2)c2ccccc2)cc1Cl (centres undefined)
-26%	-13	6%	-1.2%	COc1cc(/C=C2/NC(=O)N(Cc3ccccc3F)C2=O)ccc1Oc1ccc([N+](=O)[O-])cn1
-2%	0	-16%	0.7%	CC1CCCCC12NC(=O)N(Cc1cc(=O)n3ccsc3n1)C2=O (centres undefined)
-14%	2	-5%	-2.9%	CC(C)COc1ccc(C(=O)OC2CC(C)(C)OCC2CN(C)C)cc1 (centres undefined)
7%	-10	-10%	0.9%	CSCC[C@H](NC(=O)OC(C)(C)C)c1nnc(SCC=C(C)C)o1
-5%	nt	nt	3.2%	COc1ccc(C(CNC(=O)COc2ccccc2)N2CCOCC2)cc1 (centres undefined)
nt	12	1%	nt	Cc1ccc2c(Cl)cc(Cl)c(OCC(=O)NCc3ccco3)c2n1
0%	nt	nt	-0.7%	Cc1cc(C(=O)NNC(=O)c2ccc(Cl)c(S(N)(=O)=O)c2)c(C)o1
15%	-4	-1%	-0.2%	CCCc1nn(-c2cc(Cl)ccc2OC)c2c1C(=O)CCC2
1%	nt	5%	6.1%	COc1cccc(NC(=O)CSc2nnc(CNC(=O)c3ccccc3F)o2)c1
-8%	nt	5%	-0.3%	CC(=O)N1CCOc2ccc(S(=O)(=O)NCc3ccc(C)cc3)cc21
7%	4	-2%	0.4%	COc1ccc(C(C)NC(=O)c2ccoc2C)cc1OC (centres undefined)
-17%	6	-49%	3.3%	O=c1c2c3c(sc2nc2n1CCCS2)CCCC3
-1%	6	14%	-0.5%	CCCCn1c(SCC(=O)N2CCN(c3ccccc3)CC2)nc2ccsc2c1=O
-4%	nt	nt	0.6%	Cc1ccccc1-c1cc(C(=O)NCc2cccc(C(F)(F)F)c2)n(CC2CC(c3cccnc3)=NO2)n1 (centres undefined)
-11%	-7	10%	-3.1%	Cc1ccc(S(=O)(=O)c2nc(NCCN(C)C)sc2Cl)cc1
6%	-3	-8%	-1.6%	CC(NC(=O)CSC1=NCCS1)c1ccccc1 (centres undefined)
5%	3	-11%	-3.1%	CC(=O)c1cccc(NC(=O)NCc2cccs2)c1
?	nt	nt	?	O=C(CN1CCOc2ccccc21)NC1CC1
2%	nt	nt	0.6%	CCOc1ccc(NC(=O)c2ccccc2-c2ccccc2C(=O)O)cc1

# Bioassay records: PubChem BioAssay, National Center for Advancing Translational Sciences (NCATS)

# Only part of the results is shown; count on the stated rates, not on these rows.
